Screens from PubChem.
NPYLR7 agonist – agonists of mosquito NPYLR7 receptor, primary screen, cell-based, Aedes aegypti, calcium fluorescence, mosquito biting behavior; Aedes aegypti neuropeptide Y-like receptor 7 (NPYLR7); HEK293T NPYLR7/Galpha15, GCaMP6s calcium fluorescence; activation, % at 10 µM; 270,000 compounds, 0.15% hits; in the data active means activation above about 40%;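 further: 0% = vehicle and 100% = reference agonist at the receptor; some compounds past the cut are filed as inactive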
NPYLR7 agonist max-min – recorded beside NPYLR7 agonist, whose call it bears; activation, %; measured here: Max-Min RFU normalised activation; some inactives read as strong as hits;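 span of the calcium signal over five minutes; 0% = vehicle and 100% = native peptide agonist; compound fluorescence can raise it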
* hit, by the source's call; & = joins results of further samples.

SMILES	NPYLR7 agonist	NPYLR7 agonist max-min
CN1CC2(CCN(C(=O)c3ccc(OC(F)F)cc3)CC2)CC1C(=O)O (configuration not stated)	1	10
O=C(Nc1cccc(-c2cn3cccnc3n2)c1)c1ccc(C(F)(F)F)cc1	10	14
COc1ccc(-c2cccc(-n3cncc3C(=O)NCc3cccc(I)c3)c2)cc1OC	10	7
C=CCCC(O)CN(CCC)Cc1c(-c2ccccc2)noc1N1CCCC1 (configuration not stated)	3	1
COc1ccc(NC(=O)c2sc(=O)n(Cc3cc(Cl)ccc3OC)c2C)cc1	14	9
Cc1ccc(C(=O)N2CCC(C(=O)NC(C)C(C)C)CC2)c(O)c1 (configuration not stated)	6	4
CN(Cc1ccn[nH]1)C(=O)c1coc(COc2cccc(F)c2F)n1	6	3
CCNC(=O)N1CCN2C[C@@H](C(=O)OCC)[C@H](c3ccccc3)[C@H]2C1	6	15
O=C(Cc1cccs1)NC1CCN(c2ccccc2C(=O)N2CCOCC2)CC1	15	7
Cc1ccc(-c2ccc(SCC(N)=O)nn2)cc1C	12	3
N#Cc1ccc(OCC(=O)N(Cc2nc3ccccc3c(=O)[nH]2)CC2CCCO2)cc1 (configuration not stated)	-7	7
CCOC(=O)C1CCN(C(=O)c2c(C)c(C)c(C)n2Cc2cccc(C(F)(F)F)c2)CC1	-1	3
CC(C)CC(C(=O)O)N1C(=O)C2C3C=CC(C3)C2C1=O (configuration not stated)	0&17	0&12
O=C(NC12CC3CC(CC(C3)C1)C2)N1CCSC1c1cccc(Oc2ccccc2)c1 (configuration not stated)	0	5
OCCOCCNc1ncnc2sc3c(c12)CCCC3	-2	-4
CCOC(=O)c1nn(-c2ccc(F)cc2)c(=O)c2c(NC(=O)c3cccc4ccccc34)scc12	4	1
Cc1ccc(-n2c(SCc3ccccc3)nnc2C(Cc2ccccc2)NC(=O)c2cccc(C(F)(F)F)c2)cc1 (configuration not stated)	-3	4
CCN(CC)c1nc(Cc2ccc(Cl)cc2)ns1	3	10
c1cc2c(cc1CN1CCC(Cc3noc(C4CC4)n3)CC1)OCCO2	-2	-2
CC(NC(=O)CN1CCCCCC1=O)c1cccc(Cl)c1 (configuration not stated)	0	-2
CC1CCN(C(=O)Cn2cnc3c(nnn3Cc3ccc(F)cc3)c2=O)CC1	9	13
COCCCNC(=O)c1cc(NC(=O)Nc2ccc(C#N)cc2)ccc1N1CCCCC1	16	18
CCOc1ccc(C(=O)Nc2sc3c(c2-c2nc4ccccc4s2)CCN(C)C3)cc1	105*	107*
CCOC(=O)C1(Cc2cccc(OC)c2)CCCN(C(=O)c2ccc(OC)o2)C1 (configuration not stated)	5&-12	2&-17
COc1ccc(CCNC2CC(=O)N(CCc3ccccc3)C2=O)cc1 (configuration not stated)	-8	-14
CCc1cc(NC(C)CCS(C)=O)n2c(nc3ccccc32)c1C#N (configuration not stated)	4	1
CCn1nc(C)cc1C(=O)N1CCCC(C(=O)Nc2ccc(-c3ccco3)cc2)C1 (configuration not stated)	2&-5	-3&-5
COCCNCc1c(-c2ccccc2)noc1N1CCC(C)CC1	13	12
CNc1cc(C(=O)NS(=O)(=O)c2ccccc2)cc(Cl)n1	-2	-5
Cc1nc(C)c2c(c1C(F)(F)F)-c1ccccc1C2(F)F	4	21
CCOc1cc(C(=O)Nc2cccc3c2C(=O)c2ccccc2C3=O)cc(OCC)c1OCC	-5	1
COc1cccc(Oc2cnn(-c3ccccc3)c(=O)c2Nc2cccc(C(=O)N3CCCC3)c2)c1	2	7
Cc1ccc(C)c(-n2nc(-c3ccco3)cc2C(=O)N2CCN(c3ccccc3F)CC2)c1	-16	-3
Cc1ccc(CN(C)Cc2ccc(C#CC(C)(C)O)s2)o1	-4	-3
Cc1csc(=NC2CCCCC2)n1N=Cc1ccc(O)c(O)c1O	25	13
CC(C)(C)NC(=O)NC(=O)COC(=O)C1c2ccccc2Oc2ccccc21	-1	-2
CCCCN(C(=O)c1ccoc1C)c1cccc(I)c1	-9	-8
CCSCCOC(=O)C1=C(C)NC2=C(C(=O)CCC2)C1c1ccc(SC)cc1 (configuration not stated)	-11	-16
Cc1cccc(C(=O)N2CCc3c([nH]c4ccccc34)C2c2ccccc2F)c1 (configuration not stated)	-12	-17
CC(C)(C)NC(=O)N1CCCC(c2nnc(-c3cccs3)o2)C1 (configuration not stated)	-3	3

Given with two lines to a compound: part of the list above
Results follow in this order: NPYLR7 agonist	NPYLR7 agonist max-min
Cc1cccc(C(=O)N2CCc3c([nH]c4ccccc34)C2c2ccccc2F)c1 (configuration not stated)
 : -12	-17
CC(C)(C)NC(=O)NC(=O)COC(=O)C1c2ccccc2Oc2ccccc21
 : -1	-2
CCSCCOC(=O)C1=C(C)NC2=C(C(=O)CCC2)C1c1ccc(SC)cc1 (configuration not stated)
 : -11	-16
CCOc1cc(C(=O)Nc2cccc3c2C(=O)c2ccccc2C3=O)cc(OCC)c1OCC
 : -5	1

Remaining list, next part:
SMILES	NPYLR7 agonist	NPYLR7 agonist max-min
O=C(c1csc(COc2cccc(F)c2)n1)N1CCOCC1	3	2
CCOC(=O)C1(C)CCCN1C(=O)c1csnn1 (configuration not stated)	-3	-6
O=C(c1cn(Cc2cccc3ccccc23)nn1)N1CCN(C(=O)c2cccs2)CC1	8	6
Cc1cc(S(=O)(=O)NCC(C)Cn2cccn2)cnc1Cl (configuration not stated)	-1	-1
CCN(Cc1nccn1Cc1ccccc1C(F)(F)F)C(=O)c1ccc(C)cc1	16	23
CN(C)CC1CCN(C(=O)/C=C/c2ccc(Cl)c(Cl)c2)C1 (configuration not stated)	0	-2
Nc1nc(C2CC2)c(Cc2ccccc2F)s1	-2	-4
O=C(Nc1ccc(F)cc1)c1cc(-c2ccccc2F)nc2cc(-c3ccccc3)nn12	14&-9	12&-7
Cc1cccc(CN(Cc2ccccc2)C(=O)c2cnc(N)nc2C)n1	3	-2
CC1(C(=O)NS(=O)(=O)c2ccc(Cl)s2)CCN1C(=O)Cc1ccccc1Cl (configuration not stated)	5	3
Cc1ccccc1C(=O)N[C@@H]1CCCCC1NC(=O)C1CCCN(C(=O)C2CC2)C1 (some centres not stated)	25	22
COc1ccccc1N1CCN(C(=O)c2c(Cl)cccc2Cl)CC1	1	-1
O=C(c1cncn1-c1ccc(-c2ccc(F)c(F)c2)cc1)N1Cc2ccccc2C1	-2	-2
Cc1cc(C)nc(NN=Cc2c(C)oc3ccccc23)n1	28	17
CCOC(=O)c1c(Cl)nc2ccc([N+](=O)[O-])cc2c1-c1ccccc1	-1	-2
CCC(CC)(CO)NCc1ccccc1F	14	8
O=S(=O)(Nn1cnnc1)c1ccccc1	-6	-7
CCc1nc2ccc(C(=O)N(C)Cc3ccco3)cn2c1N(C)Cc1nccn1C	-7	-11
Cc1nc(-c2ccc(Cl)cc2)nc(N2CCN(S(=O)(=O)c3cccc(C(F)(F)F)c3)CC2)c1C	-7	-5
COc1cccc(Cc2nsc(Oc3cccc(C(=O)N4CCN(c5ccccc5C)CC4)c3)n2)c1	-11	-4

Reformatted with bars between the fields: part of the list above.
canonical_smiles | NPYLR7 agonist | NPYLR7 agonist max-min
CCOC(=O)c1c(Cl)nc2ccc([N+](=O)[O-])cc2c1-c1ccccc1 | -1 | -2
CCC(CC)(CO)NCc1ccccc1F | 14 | 8

Next structures.
SMILES	NPYLR7 agonist	NPYLR7 agonist max-min
Cc1nc(C2CC2)ncc1C(=O)N1CCC(Cc2cccc(C(=O)O)c2)CC1	5	1
CCOC(=O)c1cnc(-c2ccc(OC)c(OC)c2)nc1NCC(C)(C)CN(C)C	20	10
Cc1ccn2c(NCc3ccccc3)c(-c3ccccc3OC(=O)c3ccccc3F)nc2c1	8	15
CC(C(=O)Nc1nccs1)N1CCC2(CC1)Nc1ccccc1NC2=O (configuration not stated)	13	4
COc1cnc(-c2cccc(C(F)(F)F)c2)c(NC(=O)CC(C)C)n1	21	15
O=C(NCC1CCCO1)c1cnn2c(C(F)(F)F)cc(-c3ccc4c(c3)OCO4)nc12 (configuration not stated)	-4	-10
Cc1ccc(CNC(=O)c2c[nH]c(=O)cn2)c(OC(C)(C)C)c1	1	0
CCC(CO)N(Cc1cccnc1)Cc1nc[nH]c1C (configuration not stated)	2	-1
CC(C)(Oc1ccc(Cl)cc1)C(=O)Nc1ccc(Nc2cc(-n3cccn3)ncn2)cc1	-7	-11
CCOC(=O)CSc1nc(C)nc2sc(C(=O)OCC)c(C)c12	1	3
CN1CCN(c2nc(-c3ccc(C(N)=O)cc3)nc3c2CCNC3)CC1	-1	-8
CC(C(=O)Nc1ccc(Cl)cn1)N1CCN(c2ccc(F)cc2)CC1 (configuration not stated)	5	6
COc1cccc(N(C)C2=NC3CS(=O)(=O)CC3S2)c1 (configuration not stated)	5	3
Cc1nn(C)c(C)c1CN(C(=O)C1CC(=O)N(CC(C)C)C1)C1CC1 (configuration not stated)	17	6
COc1ccc(N(C)S(=O)(=O)c2ccc(OC)c(N3CCN(C(=O)c4cc(OC)cc(OC)c4)CC3)c2)cc1	-3	12
CN(C)CCCNC(=O)CC1CSc2nc3c(cnn3-c3cccc(Cl)c3)c(=O)n21 (configuration not stated)	3	1
CCN(CC)c1ccc(NC(=O)CCCn2nc(-c3ccc(C)cc3)ccc2=O)c(C)c1	-12	-19
CCc1nc2ccc(C(=O)N3CCN(C(C)=O)CC3)cn2c1N(CCC(C)C)CCN(C)C	15	-2
CCC(C(=O)N1CCc2cc(OC)c(OC)cc2C1c1ccc(F)cc1)c1ccccc1 (configuration not stated)	16	14
Cc1cc(C)c2oc(-c3ccc(C)c(NC(=O)c4ccc([N+](=O)[O-])cc4)c3)nc2c1	-4	-7

A few values from above.
NPYLR7 agonist result of `CN(Cc1ccn[nH]1)C(=O)c1coc(COc2cccc(F)c2F)n1` stands at 6
NPYLR7 agonist result of `CCN(CC)c1ccc(NC(=O)CCCn2nc(-c3ccc(C)cc3)ccc2=O)c(C)c1` stands at -12
NPYLR7 agonist max-min result of `COc1ccccc1N1CCN(C(=O)c2c(Cl)cccc2Cl)CC1` stands at -1
NPYLR7 agonist result of `CCOc1cc(C(=O)Nc2cccc3c2C(=O)c2ccccc2C3=O)cc(OCC)c1OCC` stands at -5
NPYLR7 agonist result of `CCC(C(=O)N1CCc2cc(OC)c(OC)cc2C1c1ccc(F)cc1)c1ccccc1` (configuration not stated) stands at 16

Other results follow:
SMILES	NPYLR7 agonist	NPYLR7 agonist max-min
CCC(CC)C(=O)Nc1cccc(/C(C)=N\NC(=O)Cc2ccc(Cl)cc2)c1	7	7
COC(=O)C(Cc1ccccc1)NC(=O)C1CC1(c1ccccc1)c1ccccc1 (configuration not stated)	21	10
Cc1ccc(C(=O)c2sc3[nH]c(=O)c(C(=O)O)cc3c2N)cc1	-10	-16
Cc1cnc(NC(=O)CCn2[nH]c(=O)ccc2=O)s1	1	8
Cc1ccc2ncn(C3CCN(C(=O)/C=C/c4ccco4)CC3)c2c1	-8	4
CCCC(CCC)n1[nH]c(=O)c2c(C)cc(C)nc21	2	-1
COC(=O)CCc1c(C)nn(-c2ccc(C(=O)NCCCN3CCOCC3)cc2)c1C	-1	-4
COc1ccc(NC2=NC3CS(=O)(=O)CC3S2)cc1Cl (configuration not stated)	-2	-3
CCCCC1CCCN1C(=O)c1ccc(O)c(OC)c1 (configuration not stated)	13	14
O=[N+]([O-])c1cccc(N=Cc2sc3ccccc3c2O)c1	4	3
OCCN1CCN(c2cc(-c3cccc(F)c3)nc3ccnn23)CC1	-7	-12
Nc1[nH]n(-c2ccccc2)c(=O)c1N=Nc1ccc2c(c1)OCO2	6&-5	6&-8
COc1cccc(-c2cc(C(=O)NCCCN3CCOCC3)nc3cc(-c4ccccc4)nn23)c1	-7	5
CC1CN(Cc2ccccc2)c2nc3c(c(=O)n(Cc4ccccc4F)c(=O)n3C)n2C1 (configuration not stated)	7	13
COc1ccc(C(=O)NC(C)c2ccc(F)cc2F)c(O)c1 (configuration not stated)	3	2
Cc1ccc(Cl)c(OC2CC3CCC(C2)N3C(=O)c2ccc(CSc3ccc([N+](=O)[O-])cn3)cc2)c1 (configuration not stated)	9	-7
CC(C)c1cc(C(=O)N2CCNCC2C(=O)N2CCCC2)cs1 (configuration not stated)	13	5
COc1cc(/C=N\NC(=O)Cc2nnc(NC(C)=O)s2)ccc1O	-7	-19
CCCNC(=O)N(CCOC)Cc1nccn1Cc1cccc(F)c1	16	13
CC1=C(C=NNS(=O)(=O)c2ccccc2)C(=O)N(C)C(=O)C1C#N (configuration not stated)	4	1

Ordered by heavy-atom count (falling): 3 of the compounds above
SMILES	NPYLR7 agonist	NPYLR7 agonist max-min
COc1cccc(-c2cc(C(=O)NCCCN3CCOCC3)nc3cc(-c4ccccc4)nn23)c1	-7	5
CCCNC(=O)N(CCOC)Cc1nccn1Cc1cccc(F)c1	16	13
COc1cc(/C=N\NC(=O)Cc2nnc(NC(C)=O)s2)ccc1O	-7	-19

Next records:
SMILES	NPYLR7 agonist	NPYLR7 agonist max-min
Cc1cc2ncc(CNCc3cccc4c3OCO4)cn2n1	17	9
CN(C)C(=O)c1ccc2c(c1)N(C)C(CC(=O)NCCCc1cccnc1)CO2 (configuration not stated)	5	2
CCC(=O)Nc1cccc(C(=O)N(C)C2CCN(C)C(C)C2)c1 (configuration not stated)	-1	-3
Cc1ccc(-c2nc3ccc(C)cn3c2NC(=O)C(Cl)Cl)cc1	-3	-1
C[C@@H](O[C@H]1OCCN(Cc2n[nH]c(=O)[nH]2)[C@H]1c1ccc(F)cc1)c1cc(C(F)(F)F)cc(C(F)(F)F)c1	-3	-10
Cc1cc(N)n(CC(=O)NCc2cnn(-c3cccc(F)c3)c2)n1	0	0
COc1ccc(-n2nnc3c(=O)n(Cc4ccc(Cl)cc4Cl)cnc32)cc1OC	-4	-9
CCC(CC)n1nc(C)cc1NC(=O)CC(C)n1cccn1 (configuration not stated)	7	8

Some of the compounds tested; the hit share may differ from the screen's.
